Source: PubChem
SARS PLpro yeast – SARS-CoV PLP inhibition in yeast; AID 485353; actives 0.19% (n = 330,000); S. cerevisiae expressing SARS-CoV PLpro, growth rescue; control for the full effect not named in the record; Potency, µM (doses to about 32.9 µM), inactives show top-dose activity, positive = growth rescue; also: 0% is about no effect; nearly all actives have a fitted effect of over 55% in size; growth read by luminescence after 48 h
Cruzain noTriton – inhibitors of Trypanosoma cruzi cruzain without detergent. P25779. purified cruzain, Z-FR-AMC fluorescence, no detergent. Potency, µM, inactives show max response, negative = inhibition, hits mostly inhibitors. actives 2.3% (n = 200,000); active = well fitted curve in the direction sought with a large enough effect; inconclusive = small, poorly fitted or top-dose-only effect, or another doubt; inactive = no such curve, though single readings can be large; an effect the other way counts as inactive or inconclusive;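 also: plate controls were enzyme without inhibitor for no effect and buffer without enzyme for full effect; nearly all actives have a fitted effect of over 40% in size; top concentration of the series not given in the record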
Target sequence (P25779 123-467 limits assumed): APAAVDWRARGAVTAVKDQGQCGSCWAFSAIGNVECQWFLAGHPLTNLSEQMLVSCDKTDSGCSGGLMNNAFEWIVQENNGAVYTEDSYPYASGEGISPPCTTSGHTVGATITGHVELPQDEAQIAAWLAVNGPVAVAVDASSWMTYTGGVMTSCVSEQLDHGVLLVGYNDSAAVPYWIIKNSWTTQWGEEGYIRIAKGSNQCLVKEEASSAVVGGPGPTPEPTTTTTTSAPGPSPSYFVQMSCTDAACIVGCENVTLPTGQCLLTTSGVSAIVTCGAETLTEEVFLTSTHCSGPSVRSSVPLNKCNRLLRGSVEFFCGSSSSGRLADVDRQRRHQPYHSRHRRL
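Purified cruzain at 1.5 nM, pre-incubated 15 min with compound at room temperature in 100 mM sodium acetate pH 5.5, 5 mM DTT, 0.00005% Triton X-100. Reaction started with 2 uM Z-FR-AMC; AMC fluorescence increase over 60 s gives rate.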
RE007 growth inh – less growth of the S. pombe RE007 Vpr strain; S. pombe RE007 Vpr strain, BacTiter-Glo ATP luminescence, 24 h; control for the full effect not named in the record; actives 0.21% (n = 360,000); Potency, µM (top dose mostly 92.2 µM), inactives show at the highest dose activity change, negative = less growth; active = well fitted falling curve with a large enough effect; inconclusive = small, poorly fitted or top-dose-only effect; inactive = no such curve, though single readings can be large or run the other way;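 also: % is scaled to controls: 0 for no effect and ±100 for the full control effect; nearly all actives have a fitted effect of over 50% in size; the assay follows cell death caused by Vpr and the record does not say whether a fall means rescue or toxicity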
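Fission yeast RE007 carrying one integrated HIV-1 vpr copy, seeded at OD 0.01 in PMG+AL medium with 23 nL pinned compound. Grown 24 h at 30 degrees; viability read by BacTiter-Glo luminescence after 5 min.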
Cruzain inh Det – inhibitors of Trypanosoma cruzi cruzain with detergent; P25779; purified cruzain, Z-FR-AMC fluorescence, 0.01% Triton; Potency, µM, for the others: max response, negative = inhibition, usual class: inhibitors; actives 0.43% (n = 200,000); active = well fitted curve in the direction sought with a large enough effect; inconclusive = small, poorly fitted or top-dose-only effect, or another doubt; inactive = no such curve, though single readings can be large; an effect the other way counts as inactive or inconclusive;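 also: plate controls were neutral wells for no effect and buffer without enzyme for full effect; nearly all actives have a fitted effect of over 40% in size; top concentration of the series not given in the record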
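Sodium acetate buffer (100 mM, pH 5.5) containing 5 mM DTT and 0.01% Triton X-100 hosted 1.5 nM cruzain and test compound for 15 min at room temperature. Cleavage of 2 uM Z-FR-AMC was then tracked by fluorescence.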
LASV entry inh – inhibitors of Lassa virus binding or cell entry. Lassa virus pseudotype entry inhibition, cell reporter; control for the full effect not named in the record. Potency, µM (series often up to 37.9 µM), for the others: at the top dose activity change, negative = inhibition, usual class: inhibitors. AID 540256. actives 1.2% (n = 300,000); active means well fitted inhibition curve with a large enough effect; inconclusive means small, poorly fitted or top-dose-only effect, or effect the other way; inactive means flat fitted curve, though single readings scatter; tested in HEK293 cells; also: % is scaled to controls: 0 for no effect and ±100 for the full control effect; nearly all actives have a fitted effect of over 50% in size; luciferase read-out
StopGo reporter – FMDV 2A StopGo reporter, luciferase signal | human cells with a luciferase reporter of 2A StopGo recoding; control for the full effect not named in the record | Potency, µM (highest dose often 57.9 µM), without a hit: at the top dose signal change, negative = less light | actives 1.2% (n = 410,000); active = well fitted falling curve with a large enough effect; inconclusive = small, poorly fitted or top-dose-only effect; inactive = no such curve, though single readings can be large or run the other way; tested in HEK293T cells; also: % is scaled to controls: 0 for no effect and ±100 for the full control effect; nearly all actives have a fitted effect of over 45% in size; luciferase light after 4 h
Marburg entry inh – Marburg virus entry inhibition; Marburg virus pseudotyped entry inhibition, cell reporter; control for the full effect not named in the record; about a third of the inactives were read at about 46 µM; Potency, µM (titrated, usually from 37.8 µM), without a hit: top-dose activity change, negative = inhibition, hits mostly inhibitors; actives 1.8% (n = 300,000); AID 540276; active = well fitted inhibition curve with a large enough effect; inconclusive = small, poorly fitted or top-dose-only effect, or effect the other way; inactive = flat fitted curve, though single readings scatter; tested in HEK293 cells; about a fifth of its hits are not listed in these tables; also: % is scaled to controls: 0 for no effect and ±100 for the full control effect; luciferase read-out
NS1 function inh – influenza NS1 inhibition. S. cerevisiae slowed by influenza A NS1, growth recovery by OD600. Potency, µM (series often up to 46.1 µM), for the others: at the highest dose activity, positive = more growth. actives 0.4% (n = 270,000); also: actives are rising curves; nearly all actives have a fitted effect of over 50% in size
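S. cerevisiae expressing influenza A NS1, grown in glucose, washed, then diluted 1:100 into pH 6.0 -URA galactose medium with 23 nl compound. Growth recovery read as OD600; NS1-free strain serves as control.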
An asterisk follows results filed as active; ? = inconclusive; . = no result given; & = joins results of further samples; [ ] = dose if it differs, or a comment. Unless noted, calls follow the shape of the dose curve; as a rule, active means well fitted rising curve with a large enough effect; inconclusive means small, poorly fitted or top-dose-only effect; inactive means no such curve, though single readings can be large or run the other way. Potency is read from the fitted curve at half-maximal effect.

SMILES	SARS PLpro yeast	Cruzain noTriton	RE007 growth inh	Cruzain inh Det	LASV entry inh	StopGo reporter	Marburg entry inh	NS1 function inh
O=c1c(-n2cncn2)c[nH]n1-c1cccc(Cl)n1	-4%	.	24%	.	-2%[46.1 µM]	2%	7%[46.1 µM]	1%
Cc1ccc(C(=O)NCC(=O)OCC(=O)Nc2cccc(S(=O)(=O)N3CCCC3)c2)cc1C	0%	.	-5%	.	.	12%	.	-1%
CCCC12CN3CC(CCC)(CN(C1)C3c1c[nH]c3ccc(OC)cc13)C2=O (stereo not given)	.	16%	.	-2.8%	-1%[46.1 µM]	-14%	?	.
CCOC(=O)c1c(CC(C)C)csc1/N=C/C1=C(O)CCCC1=O	-2%	.	-20%	.	.	-20%	.	-2%
CSc1ccc(/C=C/C(=O)c2c(O)cc(C)oc2=O)cc1	-1%	.	-27%	.	-27%[46.1 µM]	-30%	8%[46.1 µM]	?
Cc1ccc(N2C(=O)CSC23C(=O)N(CC(=O)NCc2ccccc2)c2ccccc23)cc1C (stereo not given)	.	-12%	.	-5.3%	-9%[46.1 µM]	-13%	.	.
CN(C(=O)CSc1nnc2ccccn12)C1CCS(=O)(=O)C1 (stereo not given)	-1%	6%	-1%	1.6%	-2%	-20%	1%	14%
CCCc1cc(N2CCN(C(=O)c3ccco3)CC2)n2c(nc3ccccc32)c1C#N	-3%	30%	12%	-5.7%	?	-30%	?	-5%
CCc1c(C)[nH]c2c(C)cccc2c1=O	-7%	-4%	26%	-0.2%	11%	?	-22%	-8%
O=C(O)CCn1c2ccccc2c2nc3ccccc3nc21	.	.	6%	.	30%[46.1 µM]	14%	?	-16%
Cc1ccccc1N/N=C/c1sc(=O)n(Cc2cccc(C(=O)O)c2)c1Cl	-3%	.	-11%	.	-18%[46.1 µM]	-25%	?	-3%
COc1ccc(S(=O)(=O)NCC(=O)N(CC(=O)NCC2CCCO2)c2ccccc2C)cc1 (stereo not given)	0%	-1%	2%	1.9%	-13%	-14%	-3%&-3%	-20%
O=C(NC1CCCCC1)C(c1cccs1)N(C(=O)c1ccco1)c1ccc2c(c1)OCCO2 (stereo not given)	-8%	26%	-9%	-3.2%	?	5%	?	22%
N#Cc1ccccc1S(=O)(=O)N1CCN(c2ccc(S(=O)(=O)N3CCOCC3)cn2)CC1	16%	?	0%	-0.8%	23%	-3%	4%&4%	-11%
O=C(O)CNC(=O)/C(=C\c1ccc2c(c1)OCO2)NC(=O)c1ccc(Br)cc1	1%	.	-8%	.	-7%[46.1 µM]	-8%	20%[46.1 µM]	.
Cc1ccc2oc3c(c(=O)c2c1)C(c1ccccc1F)N(c1ccccn1)C3=O (stereo not given)	.	0%	.	-0.9%	4%[46.1 µM]	0%	-2%[46.1 µM]	.
CC(=O)Nc1ccc(OCC(O)Cn2c3ccccc3c3ccccc32)cc1 (stereo not given)	-7%	?	28%	-13%	-5%	-16%	?	-28%
O=C(/C=C/c1ccc(Cl)cc1Cl)NCCSCc1ccccc1	?	3%	-2%	-4.3%	?	1%	?	-26%
O=C1C(C2=NC(C(=O)O)C3C(=O)N(c4ccccc4)C(=O)C23)=C(O)c2ccccc21 (stereo not given)	-4%	-6%	-26%	-4.3%	2%	19%	-5%	7%
NCCCCNS(=O)(=O)c1cccc2c(Cl)cccc12	.	1%	.	-7.3%	.	.	4µM*	-3%
CC1(C)Cc2c(sc(NC(=O)C(=O)N3CCCCC3)c2C(N)=O)CO1	5%	.	7%	.	.	26%	.	11%
CCOc1ccc(S(=O)(=O)Nc2cccc(C(=O)N3CCN(c4ccc(OC)cc4)CC3)c2)cc1	-2%	11%	-5%	-4.9%	1%	0%	0%	12%
O=C(O)c1nn(CCOc2cccc(Cl)c2)c(=O)c2ccccc12	-13%	.	-12%	.	2%[46.1 µM]	-10%	4%[46.1 µM]	.
C=CCNc1c2c(nc3nnnn13)CCCC2	1%	.	2%	.	3%	0%	1%[46.1 µM]	.
O=C(CN(c1cccc([N+](=O)[O-])c1)S(=O)(=O)c1ccccc1)N(Cc1ccccc1)Cc1ccccc1	13%	-2%	1%	-2.0%	?	-7%	?	-3%
Nc1ccnn1C1CCNCC1	1%	14%	-15%	15%	-2%	-24%	-5%	-6%
Cn1c(SCC(=O)Nc2ccc(F)cc2)nnc1C1CC1	5%	.	-14%	.	-2%	8%	20%[46.1 µM]	14%
CCOc1ccc(NC(=O)CNC(=O)COc2ccccc2)cc1	16%	-14%	-2%	-1.5%	14%	36%[activator]	?	-2%
Cc1ccc(C(=O)Nc2ccc(-c3csc(C)n3)cc2)cc1	-2%	.	-7%	.	?	1%	-16%	1%
Cc1ccc(NC(=O)N2CCCc3ccccc32)cc1	-1%	.	-2%	.	29%	43%[activator]	-8%[46.1 µM]	-2%
Cc1ccc(OCCCn2cc(C#N)c3ccccc32)cc1	-11%	-6%	-9%	-8.5%	-11%	-13%	1%	8%
Cc1ccccc1OCc1ccc(-c2nc(C#N)c(NCCCN(C)C)o2)o1	.	-5%	.	-4.4%	1%[46.1 µM]	-3%	?	.
Cc1ccc(N2CC(C(=O)NCCS(=O)(=O)N3CCN(c4ccc(F)cc4)CC3)CC2=O)cc1 (stereo not given)	9%	0%	5%	-1.6%	0%[46.1 µM]	-2%&3%	.	-3%
O=C(Nc1cc(Cl)ccc1-n1cncn1)c1ccccc1OC(F)F	-1%	.	-10%	.	-23%	-18%	-22%[46.1 µM]	.
COCCCNC(=O)c1ccc(S(=O)(=O)c2ccc(C)cc2)c(NC(C)=O)c1	1%	.	3%	.	.	-20%	.	6%
O=C(CCCC(=O)N(c1ccc2c(c1)OCCO2)C(C(=O)NC1CCCCC1)c1ccc(F)cc1)Nc1ccccn1 (stereo not given)	4%	?	2%	5.6%	2%	.	?	11%
Cc1occc1-c1nnc(SCC(=O)N2CCc3ccccc32)o1	3%	-3%	3%	4.7%	-1%	-24%	3%	-6%
CN(C)c1ccc(CNC(=O)C2CCCN(S(=O)(=O)c3ccc4c(ccn4C)c3)C2)cc1 (stereo not given)	.	-16%	.	-3.1%	?	?	.	.
COc1cccc2c(=O)cc(C)n(CC(=O)Nc3ccccc3C)c12	-2%	4%	17%	-2.5%	-18%	?	?	-1%
CCOC(=O)C1CCN(S(=O)(=O)c2cc(-c3onc(C)c3C)ccc2C)CC1	.	?	.	-4.5%	-12%[46.1 µM]	0%	.	.
Cn1c(=O)[nH]c2c(nc(-c3ccc(Cl)cc3)n2C)c1=O	2%	.	15%	.	-8%[46.1 µM]	-3%	0%[46.1 µM]	2%
CCOc1ncccc1C(=O)NCc1ccc(C)cc1	4%	-3%	.	-2.4%	-9%	1%	-3%	-6%
Cc1ccccc1Cn1nc(C)c(NC(=O)c2nc3n(n2)C(C(F)F)CC(C)N3)c1C (stereo not given)	8%	23%	-7%	2.5%	6%	-17%	-10%	13%
COCCn1nnnc1SCC(=O)c1ccc(F)cc1	-11%	-16%	-22%	-0.1%	13%	15%	13%	4%
Cc1ccc(C)c(N2CCN(C(=O)c3ccc(Cl)c(NC4=NC5CS(=O)(=O)CC5S4)c3)CC2)c1 (stereo not given)	5%	.	2%	.	-29%[46.1 µM]	-11%	?	6%
O=C(CSc1nc2ccccc2c(=O)n1-c1ccc(F)cc1)NCc1ccco1	-7%	-9%	-13%	-3.3%	-1%	-22%	?	10%
CCC(=O)Nc1c(C(=O)N2CCN(c3ccccn3)CC2)cnn1-c1ccc(C)cc1	13%	-6%	-16%	-1.6%	6%	-7%	16%	-14%
CC(CNS(=O)(=O)c1cc(Cl)ccc1Cl)CN(C)C (stereo not given)	0%	-2%	16%	2.5%	0%	-18%	23%	0%
CC(C)c1c(Cl)c(O)c(-c2ccccc2)c(=O)n1-c1ccc(F)cc1	12%	?	2%	-17%	10%	-7%	0%	15%
COC(=O)C1=C(C)N(Cc2ccccc2)C(=NCC2CC2)N[C@H]1c1ccccc1	-7%&13%&5%	.	-10%	.	.	-29%	.	-2%&3%
CN=C(Nc1ccc2c(c1)OCO2)SC1CC(=O)N(c2ccccc2)C1=O (stereo not given)	-14%	13%	-1%	-5.0%	2%	-22%	-16%	-8%
CN(C)CCCN(C(=O)c1sc2ccccc2c1Cl)c1nc2ccc(F)cc2s1	-2%	-16%	-1%	-7.5%	?	-32%	?	-1%
S=c1[nH]nc(COc2ccc(Cl)cc2Cl)n1-c1ccccc1	4%	.	2%	.	.	-22%	.	-79%
COc1ccccc1N(CC(=O)NCC(C)C)S(=O)(=O)c1cccs1	3%	9%	2%	-1.4%	?	26%	?	10%
CCCCCOC(=O)c1ccc(OC(=O)c2sc3ncn(Cc4cccc(F)c4)c(=O)c3c2C)cc1	.	4%	.	1.0%	11%[46.1 µM]	-11%	.	.
CCNC(=S)NNC(=O)c1csc(CC)c1	-5%	?	1%	0.5%	6%	22%	3%	7%
O=C(N/N=C/c1ccc(Br)o1)c1ccc2c(c1)OCCO2	-38%	-12%	-22%	-6.3%	-6%	0%	?	-40%
CCN(C(=O)CSc1nc(C)nc2sc3c(c12)CCC3)C1CCS(=O)(=O)C1 (stereo not given)	-2%	.	-3%	.	13%[46.1 µM]	-23%	15%[46.1 µM]	.
CC(=O)NC1(c2ccccc2)CCN(c2cc(C)nc(-c3ccccc3)n2)CC1	0%	.	0%	.	-4%	0%	-16%[46.1 µM]	-1%
O=C(NCCCN1CCN(Cc2ccccc2)CC1)C1CCN(S(=O)(=O)N2CCC3(CC2)OCCO3)CC1	-1%	.	7%	.	7%	-15%	3%	.
COc1ccc(S(=O)(=O)N2CCCC(C(=O)Nc3cccnc3)C2)cc1Cl (stereo not given)	-1%	25%	-14%	-4.9%	-7%	25µM*	?	-22%
